Menin MLL FP FL – menin-MLL binding inhibition, fluorescein peptide; Fluorescence polarization, fluorescein-MLL peptide displacement from menin; FP activity change, % at 61.4 µM; 290,000 tested, under 10 active; AID 1766; inconclusive = falling polarisation curve, or a change in total fluorescence; inactive = total fluorescence flat and polarisation flat or rising; no compound was filed as active; the % refers to the polarisation; negative = inhibition;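 also: % of control where 0% means no effect; inhibitors lower the polarisation; unlabelled MLL peptide was the positive control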
Sfp inh – Sfp phosphopantetheinyl transferase inhibition; Q9F4F7; Biochemical Sfp PPTase activity, qHTS; Potency, µM, inactives show max response, negative = inhibition, usual class: inhibitors; actives 3.5% (n = 310,000); active = well fitted inhibition curve with a large enough effect; inconclusive = small, poorly fitted or top-dose-only effect, or another doubt; inactive = no such curve, though single readings can be large or run the other way;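 also: the enzyme is Sfp with the accession as filed and its product quenches rhodamine fluorescence; potency is read from the fitted curve at half-maximal effect; 0% = enzyme reaction without inhibitor and -100% = no enzyme wells; top concentration of the series not given in the record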
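Fluorescence-quenching assay: 15 nM Sfp-PPTase preincubated 15 min at room temperature with compound, then 5 uM rhodamine-CoA and 12.5 uM BHQ-2-labelled YbbR peptide added. Fluorescence (ex 525/em 598 nm) read at start and after 30 min; difference gives rate.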
ClpP mod – qHTS Assay for Activators of ClpP; ATP-dependent Clp protease proteolytic subunit (Bacillus subtilis (strain 168)), P80244; purified B. subtilis ClpP, FRET peptide cleavage, 20 min; Potency, µM (series often up to 57.5 µM), without a hit: top-dose activity change, negative = active; actives 1.9% (n = 340,000); active = well fitted falling curve with a large enough effect; inconclusive = small, poorly fitted or top-dose-only effect; inactive = no such curve, though single readings can be large or run the other way; also: potency is read from the fitted curve at half-maximal effect; the source files actives as falling curves though it sought activators and does not explain the sign; nearly all actives have a fitted effect of over 65% in size; many hits overshoot -100%
Target sequence (P80244 whole entry, looked up): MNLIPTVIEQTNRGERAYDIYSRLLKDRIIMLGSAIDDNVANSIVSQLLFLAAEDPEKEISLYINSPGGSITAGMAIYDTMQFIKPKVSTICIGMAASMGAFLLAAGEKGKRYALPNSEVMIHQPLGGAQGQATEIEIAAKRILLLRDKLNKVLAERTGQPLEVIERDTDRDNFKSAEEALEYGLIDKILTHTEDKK
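Buffer: 100 mM Tris/HCl pH8, 100 mM KCl, 0.05% low protease BSA, 2.5% glycerol, 0.01% Tween-20. ClpP 10 microg/mL final; 20 min RT; delta FRET normalized to ADEP and DMSO controls.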
gsp agonist – activates gsp, the McCune-Albright syndrome mutation | gsp mutant cells, cAMP HTRF, 30 min; control for the full effect not named in the record | actives 0.13% (n = 340,000) | Potency, µM (series often up to 76.9 µM), for the others: at the highest dose activation (cAMP increase), actives largely listed as activators; active = well fitted activation curve with a large enough effect; inconclusive = small, poorly fitted or top-dose-only effect, or another doubt; inactive = no such curve, though single readings can be large or run the other way; cell line not stated here;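 also: phosphodiesterase inhibitor Ro 20-1724 added with compounds to block cAMP breakdown; potency is read from the fitted curve at half-maximal effect; nearly all actives have a fitted effect of over 60% in size; about a fifth of the inactives were tested at one dose only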
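Cells in DMEM/10% FBS with G418 were pretreated with compounds in DMSO plus […] (300 uM stock) for 30 min at 37C. cAMP was measured by HTRF (cAMP-d2 plus anti-cAMP antibody-K) after 30 min at room temperature.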
D2 PAM – positive allosteric modulators of human D2 dopamine receptor; actives 0.23% (n = 360,000); potentiation, % (concentration not given with the values); P14416; AID 624464; DiscoveRx D2 beta-arrestin cells, luminescence, 90 min; 100% = 57 uM dopamine signal; active = potentiation of 50% or more; inconclusive = 30% to 50%; inactive = 30% or less;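 also: compound concentration not given in the record; tested on top of an EC20 dose of dopamine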
Target sequence (P14416 whole entry, looked up): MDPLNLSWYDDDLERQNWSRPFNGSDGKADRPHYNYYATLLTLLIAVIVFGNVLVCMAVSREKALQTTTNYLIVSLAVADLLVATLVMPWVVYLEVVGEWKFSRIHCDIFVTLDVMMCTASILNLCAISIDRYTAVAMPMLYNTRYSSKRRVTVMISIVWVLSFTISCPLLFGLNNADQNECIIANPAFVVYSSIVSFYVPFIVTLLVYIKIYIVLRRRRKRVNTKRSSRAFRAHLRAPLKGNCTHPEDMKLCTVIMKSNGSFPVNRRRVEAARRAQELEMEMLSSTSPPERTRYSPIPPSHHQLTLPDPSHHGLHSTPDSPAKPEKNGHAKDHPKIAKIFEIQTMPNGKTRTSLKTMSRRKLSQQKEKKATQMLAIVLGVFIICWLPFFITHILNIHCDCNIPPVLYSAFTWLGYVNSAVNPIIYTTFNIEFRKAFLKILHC
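PathHunter D2 cells, attached overnight at 37 deg C, received compound in DMSO plus dopamine at EC20 (50 nM final) for 90 min at 37 deg C. Beta-arrestin recruitment was read as luminescence after 1 h with detection reagent at ambient temperature.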
gsp antagonist – gsp mutant antagonism | Potency, µM (titrated, usually from 76.9 µM), inactives show top-dose activity change, negative = inhibition, most hits filed as inhibitors | gsp-mutant cells, cAMP HTRF, 30 min; control for the full effect not named in the record | AID 624288 | actives 0.4% (n = 340,000); active = falling curve of any shape with a large fitted effect; inconclusive = falling curve, mostly with a smaller effect; inactive = flat or rising curve; cell line not stated here;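 also: intracellular cAMP measured with PDE inhibitor Ro 20-1724 present during compound exposure; potency is read from the fitted curve at half-maximal effect; % is scaled to controls: 0 for no effect and ±100 for the full control effect; nearly all actives have a fitted effect of over 65% in size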
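HTRF cAMP read-out (cAMP-d2 plus anti-cAMP antibody-K in lysis buffer, 30 min RT). Before lysis, cells are exposed to compounds with […] for 30 min at 37C in DPBS containing Ca/Mg, BSA and Tween 20.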
TRPV1 potentiator – enhances activation of the human vanilloid receptor TRPV1 | Q8NER1 | TRPV1-expressing cells, Fluo-8 calcium influx, capsaicin EC20 potentiation; host cell line not named in the record; control for the full effect not named in the record | potentiation, % at 8.33 µM | actives 0.02% (n = 320,000) | AID 540277; active means potentiation above 80%; inconclusive means 30% to 80%; inactive means below 30%; also: 0% is about no effect
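Cells expressing TRPV1 were dye-loaded with Fluo-8 and read kinetically: 10 s baseline, 3 min after compound (agonist portion), then 2 min after EC20 capsaicin (allosteric enhancer portion). Calcium-bound dye fluorescence at 480/520 nm.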
* hit, by the source's call; u = inconclusive; x = no result given; [ ] = dose if it differs, or a comment.

SMILES	Menin MLL FP FL	Sfp inh	ClpP mod	gsp agonist	D2 PAM	gsp antagonist	TRPV1 potentiator
O=C1NCCCCC1NS(=O)(=O)c1cccc2ccccc12 (stereo not given)	4.1	-7.6%	-10.9%	u	-5.3	11.6%	5.1
C=CCN(c1ccc(C(=O)Nc2cc(C)cc(C)c2)cc1)S(C)(=O)=O	-0.3	-6.9%	52.4%	5.6%	-22.2	-7.3%	-1.4
COc1ccc(NC(=O)C2C3CC/C=C\CCC32)cc1 (stereo not given)	2.1	12.8%	x	-8.6%[15.4 µM]	-9.0	11.8%	-21.4
CCNC(=S)N1CCN(C(=O)c2ccco2)CC1	2.9	24.1%	-0.9%	3.1%	-1.5	9.2%	3.6
O=C1C2C3C=CC(CC3)C2C(=O)N1c1ccc2c(c1)OCO2 (stereo not given)	1.5	-10.1%	-2.4%	-56.3%[inhibitor]	-12.6	5.6%	-12.6
NC(=O)c1c(N)sc2c1CCCC2	-18.9	25.1µM*	-8.2%	23.8%	-1.0	2.2%	4.5
Cc1ccc(OCc2cc(C(=O)N3CCN(c4ccccc4)CC3)no2)cc1C	x	13.5%	-2.1%	15.3%[15.4 µM]	5.8	-2.8%	24.0
CCc1ccc(NC2Nc3cc(C)nn3S2)cc1 (stereo not given)	-2.3	3.1%	1.4%	-0.6%[15.4 µM]	3.0	11.6%	24.2
CCOC(=O)[C@@H]1[C@H]2COc3ccccc3[C@H]2N2C(=O)N(c3ccc(Br)cc3)C(=O)[C@]12C	x	x	-0.5%	-0.5%	-8.3	-12.7%	x
CCN(CC)C(=O)c1cc([N+](=O)[O-])cc2c1-c1ccc([N+](=O)[O-])cc1C2=C(C#N)C#N	2.6	70.8µM*	x	2.4%	0.6	-12.0%	-0.8
COc1ccccc1CNC(=O)CN1C(=O)NC2(CCC(C)CC2)C1=O (stereo not given)	x	x	x	13.4%	0.4	-11.9%	x
O=C(Nc1ccc(N2CCCCC2)cc1)c1ccc(F)cc1	0.5	12.7%	-3.4%	19.6%	-8.4	3.1%	-22.7
O=[N+]([O-])c1cccc(/C([O-])=C(/C(=S)Nc2cccc3ccccc23)[n+]2ccccc2)c1	3.9	35.5µM*	x	u	-6.9	-5.8%	2.4
CC(Sc1nc(N2CCOCC2)nc(N2CCOCC2)n1)C(=O)Nc1ccccc1 (stereo not given)	-2.3	-5.0%	-0.7%	8.7%	7.9	-11.2%	-20.5
O=C(O)C1C2C=CC(O2)C1C(=O)Nc1cccc(C(F)(F)F)c1 (stereo not given)	-3.0	3.7%	1.3%	0.2%	-3.1	2.7%	26.0
Cc1ccc(-c2cc3nn(-c4ccccc4)c(N)c3c(=O)o2)cc1	3.5	4.2%	31.6µM*	8.0%	-6.0	u	9.5
COc1ccc(C(=O)Nc2ccnn2C2CCN(C(C)CSC)CC2)cc1 (stereo not given)	-12.6	21.4%	0.3%	9.3%	-3.0	-2.3%	-7.8
COc1ccc(-c2cc(C(=O)Nc3cccnc3Cl)no2)cc1OC	-0.6	17.9%	-9.6%	-23.9%[15.4 µM]	0.3	0.5%	-3.6
COC(=O)[C@@]1(Cc2ccc(F)cc2)[C@H]2c3cc(C(=O)N(C)C)n(Cc4ccc(C)o4)c3C[C@H]2CN1C(=O)c1ccccc1	2.5	15.8µM*	-4.2%	x	x	x	x
CCOc1ccc(C(=O)NCC(C)C)cc1	-4.2	1.4%	-4.7%	-29.7%	-0.9	4.6%	-16.4
Cc1cccc(N2CCN(C(=S)NCCc3ccccc3)CC2)c1C	1.1	-22.3%	-0.7%	-11.8%[15.4 µM]	3.5	11.4%	24.4
CC(=O)c1cccc(NC(=O)C2CCN(S(=O)(=O)c3ccc(F)cc3)CC2)c1	3.6	8.2%	-1.0%	-56.2%	-9.1	-2.2%	-14.3
Nc1nc(-c2ccc3c(c2)CCCC3)c(CC(=O)O)s1	7.0	-15.0%	x	15.8%[15.4 µM]	-2.8	1.1%	-15.8
C/C(N)=C(/C#N)C(=O)COC(=O)CCCNC(=O)c1ccc(Cl)cc1	0.1	9.1%	-1.0%	-21.6%	4.6	2.3%	10.3
CCc1ccc(NC(=O)C(CC)Sc2nc3ccsc3c(=O)n2CCC(=O)O)cc1 (stereo not given)	x	-1.9%	-0.8%	55.7%	-17.0	u	2.0
S=c1[nH]nc(-c2ccco2)n1-c1ccc(Br)cc1	x	x	-1.4%	-1.1%[15.4 µM]	-6.3	-16.1%	x
O=C(Nc1nc(-c2ccccn2)cs1)c1ccco1	4.0	-49.8%	x	0.8%	-1.1	-14.9%	5.0
COc1cc(C(=O)NC(=S)N(C)Cc2ccccc2)cc(OC)c1OC	-0.4	u	x	-0.2%[15.4 µM]	-6.8	9.4%	12.4
O=C(NCc1ccc2c(c1)OCO2)c1ccncc1	-0.6	13.9%	-1.1%	28.8%	-2.0	11.2%	-20.1
CCC1(c2cccc(Cl)c2)NC(=O)N(Cc2cc(C(=O)OC)c(C)o2)C1=O (stereo not given)	-0.8	16.0%	1.2%	2.2%	6.0	u	5.8
COc1cc2[nH]c3c(=O)n(CCN(C(C)C)C(C)C)cnc3c2cc1OC	2.3	-19.2%	28.2µM*	-24.2%	2.4	5.1%	-1.9
CCC(Sc1nc(C)cc(=O)[nH]1)C(=O)Nc1nnc(C)s1 (stereo not given)	2.7	10.8%	-0.9%	0.1%	-31.0	9.5%[15.4 µM]	0.9
COc1ccc(C(=O)Nc2ccc(O)c3ccccc23)cc1	x	x	1.4%	-34.5%[inhibitor]	15.9	-6.0%	x
Cc1ccc(C)c(C(=O)OCC(=O)Nc2ccc(N3CCOCC3)cc2)c1	-1.4	7.3%	-2.1%	3.1%[15.4 µM]	-5.2	1.2%	0.4
Oc1ccc(CNc2ccccc2F)c2cccnc12	0.9	1.3%	0.2%	4.2%	15.9	-0.8%	12.2
O=C(c1ccco1)N1CCN(CCCCOc2ccc(F)cc2)CC1	-1.7	0.3%	-8.2%	-43.3%[inhibitor]	12.5	9.2%	-9.7
COc1ccc(NC(=O)CN(C)C(=O)CSCc2c(C)noc2C)cc1	x	x	-1.3%	-55.9%[inhibitor]	-14.1	2.3%	-6.9
CC(C)(C)OC(=O)N1CCC(CC2CC(c3ccncc3)=NO2)(C(=O)O)CC1 (stereo not given)	x	x	1.5%	1.7%	-15.1	3.1%	u
COc1ccc(C2=[N+]([O-])C(C)(C)N(O)C2(C)C)cc1	-0.8	2.1%	-0.4%	-44.1%[inhibitor]	12.5	8.9%	3.9
COCCCNS(=O)(=O)c1ccc(S(=O)(=O)N2CCCC2)cc1	0.9	-2.2%	2.4%	-46.8%[inhibitor]	-7.7	1.7%	2.6
CC(=O)NC1=C(N(C)C2CCS(=O)(=O)C2)C(=O)c2ccccc2C1=O (stereo not given)	x	-8.7%	948.0%	1.4%[15.4 µM]	20.7	-11.3%	4.5
CC1(C)CC(=O)C=C(c2ccc(I)cc2)C1	x	x	-1.7%	17.2%	-7.7	-3.6%	-14.9
CN(C=O)c1ccc(CSc2ccccc2)cc1	x	x	-3.4%	0.7%[15.4 µM]	0.1	1.3%	x
O=C(NCCCCc1ccccc1)C1CC(c2ccc(C(F)(F)F)cc2)=NO1 (stereo not given)	1.5	11.8%	1.0%	-35.5%[inhibitor]	-11.1	-1.1%	-6.4
C/C(CC(=O)Nc1ccc(Cl)c(Cl)c1)=N\NC(=O)C(=O)N1CCCCC1	-2.9	14.4%	x	1.6%	-11.0	5.4%	4.1
COc1ccc2oc(=O)cc(-c3cc4ccccc4o3)c2c1	3.6	3.9%	-1.8%	17.3%	-2.7	-38.1%	-2.0
Cc1ccc(C(=O)NCC(=O)N2CCCN(C)CC2)cc1C	x	x	3.2%	1.3%	-9.8	8.2%	x
COc1ccc(N2CC(C(=O)N3CCN(C)CC3)CC2=O)cc1 (stereo not given)	4.3	-3.6%	x	28.2%	-2.9	5.0%	4.4
O=C(CO)N/N=C/c1cccc(Cl)c1Cl	-0.9	3.4%	1.1%	-2.2%	-12.8	7.3%	2.0
COc1ccc(CCn2c(C3CCCCC3)nc3c(c(=O)c4ccccc4n3C)c2=O)cc1OC	-1.6	10.5%	x	2.8%	-1.4	-6.2%	2.9
Cc1cc(C)cc(N(CCC#N)C(=O)COC(=O)C2CCN(S(=O)(=O)c3ccc(C)c(C)c3)CC2)c1	x	x	2.7%	-2.7%[15.4 µM]	-23.1	-3.8%	-2.5
CC(=O)NC12CC3CC(C1)CC(C(=O)N1CCN(S(=O)(=O)c4ccccc4[N+](=O)[O-])CC1)(C3)C2	x	x	0.5%	-2.5%	-1.7	-18.7%	1.4
Cc1ccc(Nc2nnc(SC(C)C(=O)NCC3CCCO3)s2)cc1C (stereo not given)	x	x	-10.7%	12.1%[15.4 µM]	-17.2	-12.6%	5.2
COc1ccccc1OCC(O)Cn1nc(C)cc1C (stereo not given)	1.6	-5.8%	-0.2%	-1.7%[15.4 µM]	-7.4	7.7%	-13.4
O=C(CSc1ccsc1[N+](=O)[O-])N1CCN(c2ccc(Cl)cc2)CC1	3.8	-3.9%	0.1%	-17.4%	-7.0	2.8%	3.6
O=C(NNC(=O)C1CC1c1ccccc1)c1cccc([N+](=O)[O-])c1 (stereo not given)	7.6	6.0%	-4.1%	15.8%[15.4 µM]	-14.7	6.2%	1.9
COC(=O)[C@H]1C[C@@]2(O)CN(S(=O)(=O)c3ccc(C)cc3)C[C@@]2(OC(=O)NC2CC2)C[C@H]1C(=O)OC	x	x	-3.5%	-87.2%[inhibitor]	-5.1	x	x
CC(C)Oc1ccc(Cn2c(=O)sc3ccccc32)cc1	4.0	8.8%	0.6%	7.0%	-21.5	-11.4%	19.0
CCc1noc(C)c1C(=O)Nc1cccc(S(=O)(=O)N(C)c2ccccc2)c1	x	x	-2.1%	-36.8%[inhibitor]	-11.9	-27.1%	-3.3
CC(c1ccccc1)N1C(=O)c2cccnc2C1=O (stereo not given)	-3.0	2.9%	-0.5%	2.0%[15.4 µM]	-5.8	8.9%	-4.5
